Screening results from PubChem.
RecA splice inh = Mtb RecA intein splicing inhibition; actives 0.75% (n = 290,000); inhibition, %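 (about 9 µM by stock and volumes)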; P9WHJ3; cell-free RecA intein splicing, fluorescence; in the data active = inhibition above about 30%; inconclusive = no clear call, values can overlap the other calls;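 also: 0% = vehicle wells and 100% = reference inhibitor control wells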
Target sequence (P9WHJ3 whole entry, looked up, canonical isoform): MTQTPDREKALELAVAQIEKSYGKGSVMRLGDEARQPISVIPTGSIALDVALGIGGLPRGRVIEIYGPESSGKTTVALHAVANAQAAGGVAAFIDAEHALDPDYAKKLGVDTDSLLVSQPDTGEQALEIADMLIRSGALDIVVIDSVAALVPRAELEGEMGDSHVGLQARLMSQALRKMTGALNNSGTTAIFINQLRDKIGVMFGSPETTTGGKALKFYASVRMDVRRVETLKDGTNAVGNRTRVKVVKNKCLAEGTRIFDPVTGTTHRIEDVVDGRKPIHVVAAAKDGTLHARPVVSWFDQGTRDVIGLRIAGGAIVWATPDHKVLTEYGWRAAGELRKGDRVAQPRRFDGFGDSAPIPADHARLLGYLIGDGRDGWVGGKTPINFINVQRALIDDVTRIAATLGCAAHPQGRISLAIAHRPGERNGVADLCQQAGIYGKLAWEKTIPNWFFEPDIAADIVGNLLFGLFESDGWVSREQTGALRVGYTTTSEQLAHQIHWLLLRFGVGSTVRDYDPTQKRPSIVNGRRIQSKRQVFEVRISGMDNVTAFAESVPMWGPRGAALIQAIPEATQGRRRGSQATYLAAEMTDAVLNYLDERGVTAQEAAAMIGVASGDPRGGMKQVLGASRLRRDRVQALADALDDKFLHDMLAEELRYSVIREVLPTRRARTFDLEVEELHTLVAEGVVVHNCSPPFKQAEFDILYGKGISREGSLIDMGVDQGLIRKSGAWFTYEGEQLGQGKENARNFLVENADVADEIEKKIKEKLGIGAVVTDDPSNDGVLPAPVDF
Mtb H37Rv = M. tuberculosis H37Rv growth inhibitors, H37Rv strain (AID 1626); M. tuberculosis H37Rv growth inhibition; higher % means a stronger effect; one-dose inhibition, % at 10 µM; IC50 in µM for titrated hits; actives 0.95% (n = 220,000);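 active = confirmed in a dose series; inconclusive = inhibition above 80% but not taken into the dose series; inactive = below 80% or under 30% at every dose of the series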;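 also: bacteria incubated seven days before Alamar blue readout; 0% = bacteria only wells and 100% = bacteria with antibiotic wells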
YopH PTP inh = inhibitors of Yersinia enterocolitica YopH tyrosine phosphatase; actives 0.16% (n = 140,000); AID 898; fluorescence Ex485/Em525; inhibition, %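 (about 10 µM by stock and volumes)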;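 active = inhibition of 50% or more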;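 also: controls were vehicle for no effect and minimum signal wells for full effect; inactives centre near -20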
Arbovirus anti = arbovirus infection inhibition. arbovirus infection cell-based antiviral screen. inhibition, % at 10 µM. actives 0.37% (n = 200,000). AID 1251;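 active = inhibition from about 30%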;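 also: bluetongue infection of BSR cells; cell survival read as ATP light after 72 h; 0% = infected wells without compound and 100% = uninfected wells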
Mtb betalactam = beta-lactam sensitization of Mtb H37Rv | M. tuberculosis H37Rv growth with meropenem, percent inhibition; hits of this screen are not shown here | actives 0.27% (n = 330,000) | inhibition, % at 25 µM;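 active = about 74% or more and at least 40 points above the plate without the antibiotic, then above 30% in a dose series; inconclusive = first-round hits that could not be retested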;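 also: growth measured after seven days incubation then overnight dye step; 0% = bacteria only wells and 100% = bacteria with antibiotic; twin plates without the antibiotic show which effects depend on it; some results filed as inactive read as strong as hits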
Arbovirus anti repeat = recorded beside Arbovirus anti, whose call it bears; inhibition, %; measured here: 10K subset replicate screen; many hits read low in the repeat;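 first of two repeat runs on a subset; 0% = infected and 100% = uninfected wells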
An asterisk follows results filed as active; ? = inconclusive; . = no result given.

SMILES	RecA splice inh	Mtb H37Rv	YopH PTP inh	Arbovirus anti	Mtb betalactam	others
COc1cc2c(cc1OC)CN(C(=O)COc1ccccc1[N+](=O)[O-])CC2	-2.5	.	.	.	8
O=C1[C@H]2[C@@H](c3ccc(F)cc3)N3C(=O)N(c4cccc(F)c4)C(=O)[C@@]3(Cc3ccc(Cl)cc3)[C@H]2C(=O)N1C1CCCCC1	-3.2	.	.	.	-11
CCN1CCCC1CN(Cc1cc2ccc(C)cc2[nH]c1=O)C(=S)Nc1ccccc1C(=O)OC (stereo unspecified)	2.4	32%	.	-24	0
Cc1ccc(S(=O)(=O)N2CCN(C(=O)COC(=O)c3oc4ccccc4c3C)CC2)cc1	-1.1	.	.	.	3
C=CCSc1[nH]c(=O)cc(C)c1C(N)=O	2.5	-6%	3	3	6
CC(C)Oc1ccc(CN2CCC(n3nccc3NC(=O)C3CC3)CC2)cc1	0.0	.	.	.	-4
CCC1(CC)NC(=O)N(CC(=O)N2CCN(S(=O)(=O)c3cccc(F)c3)CC2)C1=O	-2.8	.	.	.	-7
Cc1ccc(C(=O)N2CCN(S(=O)(=O)c3ccccc3[N+](=O)[O-])CC2)o1	-1.8	2%	.	16	3
COc1cc(Cl)ccc1OCc1cc(C(=O)N[C@H]2CCCCNC2=O)no1	-5.1	.	.	.	-3
CCC1CCCCN1C(=O)CCCOc1ccccc1 (stereo unspecified)	2.0	-2%	-18	-4	4
CCCCNC(=O)CSc1nnc(NC(C)=O)s1	-2.3	0%	-32	1	-13
COc1ccc(N(C)C(=O)c2ccc3nc(-c4ccccc4)c(-c4ccccc4)nc3c2)cc1	9.9	28%	-35	-32	18
CC(C)(C)NC(=O)C(c1ccc(O)cc1)N(C(=O)Cn1nnc(-c2ccc(F)cc2)n1)c1ccccc1F (stereo unspecified)	0.6	-2%	.	-3	42
CN1C(=O)C(O)(CC(=O)c2cccs2)c2ccccc21 (stereo unspecified)	-1.0	-6%	.	-6	-5
OC1CCCN(c2c3c(nc4cc(-c5cccc(F)c5)nn24)CCCC3)C1 (stereo unspecified)	8.0	10%	.	-8	23
CC1C(c2ccccc2)=NNc2nc3c(c(=O)n(C)c(=O)n3C)n21 (stereo unspecified)	-3.2	-10%	.	.	-4
N#CCCn1cc(C(=O)O)c(-c2ccc3ccccc3c2)n1	4.9	.	.	.	1
COCC1CCCN(C(=O)c2ccc(OC3CCN(Cc4ccccn4)CC3)cc2)C1 (stereo unspecified)	-2.1	-2%	.	7	0
CCN(CC(=O)Nc1ccccc1OC)CC(=O)Nc1sccc1C#N	4.4	1%	.	-1	-3
O=C(NCc1cccnc1)C(=O)Nc1nc(C23CC4CC(CC(C4)C2)C3)cs1	7.9	?	.	.	93
O=C(CN1C(=O)NC2(CCCC2)C1=O)OCc1cc(=O)n2cc(Br)ccc2n1	-1.0	-13%	.	.	4
O=c1ccc2cc(S(=O)(=O)N3CCN(c4ccc(Cl)cc4)CC3)ccc2o1	0.6	.	.	.	2
Cc1ccc(NC2CCCN(C(=O)CSc3ccncc3)C2)cc1C (stereo unspecified)	2.7	.	.	.	2
Cc1csc2ncc(C(=O)Nc3cccc(C(F)(F)F)c3)c(=O)n12	-0.2	0%	.	.	2
Cc1cc(N/N=C/c2ccc(N(C)C)cc2)nc(NCc2ccccc2)n1	-13	-7%	.	.	0
CN(C)c1nnnn1-c1cccc(Oc2ncc(C(F)(F)F)cc2Cl)c1	-1.0	10%	.	2	3
CCc1ccc(S(=O)(=O)NCc2csc(C)n2)cc1	-2.4	.	.	.	8
Cc1ccc(-n2nc3c(c2NC(=O)CCC2CCCCC2)CS(=O)C3)cc1 (stereo unspecified)	0.2	8%	-17	-1	-1
Fc1ccccc1Nc1n[nH]c(=S)s1	-0.4	4%	.	-4	-8
CCc1cc2c(SCC#N)ncnc2s1	3.4	4%	.	12	-7
Cc1ccn2c(NC(=O)c3ccco3)c(-c3ccccc3)nc2c1	-1.5	10%	-15	4	7
Cc1cc(NC(=S)Nc2ccc(C)c(Cl)c2)n[nH]1	3.2	?	.	10	9
CC(=O)COC(=O)c1cc(-c2ccc(C)cc2)nc2ccccc12	-1.5	12%	.	-11	7
CCc1nnc(NC(=O)Cn2nc(-c3ccc(OC)c(OC)c3)ccc2=O)s1	-3.5	-10%	-4	24	-10
Cc1cc(C)cc(N(CC(=O)N2CCn3c2nc2ccccc23)S(=O)(=O)c2c(C)noc2C)c1	-1.0	-11%	-46	2	8	Arbovirus anti repeat=5
COc1cccc(NC(=O)CC(C)=O)c1	-1.7	-3%	-13	6	4
CN(C(=O)CSc1nc2cc(Cl)ccc2c(=O)n1Cc1ccco1)C1CCS(=O)(=O)C1 (stereo unspecified)	0.3	5%	.	0	1
COC(=O)CCN1CCC(c2cc(-c3cccc(C(F)(F)F)c3)n[nH]2)CC1	0.0	.	.	.	9
CC1CCN(C(=O)c2cc(Cl)ccc2NC(=O)c2ccco2)CC1	-3.1	.	.	.	3
CC(C)n1c(=S)[nH]c2c1c(=O)[nH]c(=O)n2C	-2.7	-6%	-14	1	-12
CCCNC(=O)COC(=O)c1cc(-c2ccc(OC)cc2)nc2ccccc12	-12	11%	.	9	41
CCN(c1ccccc1)S(=O)(=O)c1cccc(C(=O)Nc2ccc(C)cn2)c1	6.8	.	.	.	-6
CSC1=N/C(=C\c2ccccc2C)C(=O)S1	-19	1%	.	-9	12
Cn1c(=O)c(-c2cccc(Cl)c2)c(O)c2ccccc21	0.5	.	.	.	95
COc1ccccc1-c1ccc(SCc2ccccc2F)nn1	0.6	3%	.	18	-3
Cc1cccc(NC(=O)CSc2nnc(C)c(=O)n2N)c1	-3.5	4%	.	0	-9
O=C(O)c1cccnc1SCc1ccccc1Cl	1.5	1%	.	4	-3
Cc1cccc(CCN(C(=O)Cc2cccs2)C(C(=O)NC2CCCCC2)c2cccnc2)c1 (stereo unspecified)	-0.5	-3%	-50	-4	-5
Clc1ccc(-c2csc(N3CCC(c4ccccc4)C3)n2)cc1 (stereo unspecified)	0.2	-1%	-43	5	15
[O-]C1=N/[N+](=C/c2ccc(Cl)c(Cl)c2)CC1	36*	-5%	-57	-3	-17
COc1cc(NC(=O)c2ccc([N+](=O)[O-])cc2)ccc1NC(=O)C(C)C	0.5	2%	.	3	-1
Cc1ccc(C(CC(=O)N2CCNCC2)c2ccccc2)c(O)c1C (stereo unspecified)	0.4	.	.	.	-1
COc1ccccc1C(=O)COC(=O)C1CCN(S(=O)(=O)c2ccc(C)c(C)c2)CC1	-2.3	.	.	.	-7
COCCNC(=O)CN(c1cc(C(F)(F)F)ccc1Cl)S(C)(=O)=O	-0.6	3%	-6	-4	-1	Arbovirus anti repeat=0
Cc1ccc(Sc2ncccc2[N+](=O)[O-])cc1	-12	.	.	.	4
O=C1N/C(=C/c2ccc(N3CCOCC3)cc2)C(=O)N1Cc1ccc(F)cc1	-2.4	6%	-29	-12	-13
Cn1c2c(c(=O)n(C)c1=O)CN(CC1CCCO1)CN2 (stereo unspecified)	1.0	-4%	-23	1	1
CCCOc1ccc(C(=O)NNC(=S)NC(=O)c2cccs2)cc1	5.6	.	.	.	94
c1ccc(Cn2nnnc2CN2CCOCC2)cc1	1.0	-4%	6	1	2
FC(F)(F)c1ccc(Cl)c(NC2=NCCCCC2)c1	-1.3	.	.	.	-8

As a short view, 20 of the compounds above:
SMILES	RecA splice inh	Mtb H37Rv	YopH PTP inh	Arbovirus anti	Mtb betalactam	others
CCCNC(=O)COC(=O)c1cc(-c2ccc(OC)cc2)nc2ccccc12	-12	11%	.	9	41
CCN(c1ccccc1)S(=O)(=O)c1cccc(C(=O)Nc2ccc(C)cn2)c1	6.8	.	.	.	-6
CSC1=N/C(=C\c2ccccc2C)C(=O)S1	-19	1%	.	-9	12
Cn1c(=O)c(-c2cccc(Cl)c2)c(O)c2ccccc21	0.5	.	.	.	95
COc1ccccc1-c1ccc(SCc2ccccc2F)nn1	0.6	3%	.	18	-3
Cc1cccc(NC(=O)CSc2nnc(C)c(=O)n2N)c1	-3.5	4%	.	0	-9
O=C(O)c1cccnc1SCc1ccccc1Cl	1.5	1%	.	4	-3
Cc1cccc(CCN(C(=O)Cc2cccs2)C(C(=O)NC2CCCCC2)c2cccnc2)c1 (stereo unspecified)	-0.5	-3%	-50	-4	-5
Clc1ccc(-c2csc(N3CCC(c4ccccc4)C3)n2)cc1 (stereo unspecified)	0.2	-1%	-43	5	15
[O-]C1=N/[N+](=C/c2ccc(Cl)c(Cl)c2)CC1	36*	-5%	-57	-3	-17
COc1cc(NC(=O)c2ccc([N+](=O)[O-])cc2)ccc1NC(=O)C(C)C	0.5	2%	.	3	-1
Cc1ccc(C(CC(=O)N2CCNCC2)c2ccccc2)c(O)c1C (stereo unspecified)	0.4	.	.	.	-1
COc1ccccc1C(=O)COC(=O)C1CCN(S(=O)(=O)c2ccc(C)c(C)c2)CC1	-2.3	.	.	.	-7
COCCNC(=O)CN(c1cc(C(F)(F)F)ccc1Cl)S(C)(=O)=O	-0.6	3%	-6	-4	-1	Arbovirus anti repeat=0
Cc1ccc(Sc2ncccc2[N+](=O)[O-])cc1	-12	.	.	.	4
O=C1N/C(=C/c2ccc(N3CCOCC3)cc2)C(=O)N1Cc1ccc(F)cc1	-2.4	6%	-29	-12	-13
Cn1c2c(c(=O)n(C)c1=O)CN(CC1CCCO1)CN2 (stereo unspecified)	1.0	-4%	-23	1	1
CCCOc1ccc(C(=O)NNC(=S)NC(=O)c2cccs2)cc1	5.6	.	.	.	94
c1ccc(Cn2nnnc2CN2CCOCC2)cc1	1.0	-4%	6	1	2
FC(F)(F)c1ccc(Cl)c(NC2=NCCCCC2)c1	-1.3	.	.	.	-8

The listing continues.
SMILES	RecA splice inh	Mtb H37Rv	YopH PTP inh	Arbovirus anti	Mtb betalactam	others
COc1ccc(N2Cc3cccc(C(=O)N4CCOCC4)c3C2=O)cc1	0.4	-1%	-41	4	0
Cc1ccc(S(=O)(=O)N(C)C2(C)CCS(=O)(=O)C2)cc1 (stereo unspecified)	2.1	-3%	-10	5	.
Cc1c(Br)c(C(F)(F)F)nn1CC(=O)NCCN1CCOCC1	0.4	-8%	-16	9	3
Cc1onc(-c2c(F)cccc2Cl)c1C(=O)NCCc1ccc(S(N)(=O)=O)cc1	-1.1	1%	-18	8	-2
O=C(c1ccccc1)N1CCN(C(=O)C23CC4CC(CC(C4)C2)C3)CC1	-0.7	6%	-38	17	-10
CCOC(=O)c1sc(=NC(=O)/C=C/c2cccs2)n(C)c1C	-4.2	7%	.	10	6
Cc1cc(Cl)c(S(N)(=O)=O)cc1OCC(N)=O	2.2	1%	29	-2	-11
CC(=O)c1c(C)[nH]c(C(=O)NCc2cccs2)c1C	-1.1	-7%	-11	2	1
O=C(NC1CCCC1)C(NS(=O)(=O)c1cccc2nsnc12)c1ccccc1 (stereo unspecified)	0.1	0%	-3	-10	-7
COc1cc(C(=O)OCC(=O)Nc2c(F)c(F)c(F)c(F)c2F)cc(OC)c1OC	1.7	1%	-41	-3	-9
O=C(CC1C(=O)NCCN1CCCc1ccccc1)NCCc1ccccc1Cl (stereo unspecified)	4.2	.	.	.	3
Cc1cc(=O)oc2cc(OCC(=O)NCCCN3CCCC3=O)c(Cl)cc12	-2.3	.	.	.	-7
CCn1nc(C(C)C)cc1C(=O)N1CCCC(CO)(Cc2ccc(F)cc2F)C1 (stereo unspecified)	-4.9	.	.	.	1
CCCSc1nc2c(c(=O)[nH]c(=O)n2C)n1C	0.5	5%	-44	18	2
Cc1cc2c3c(c1C)C(=O)C(=O)N3C(C)(C)CC2C (stereo unspecified)	5.7	-2%	.	-14	27
COc1cccc(C(=O)n2c(SC)nc3cc4c(cc32)OCCO4)c1	.	-4%	-30	-7	10

Part of the list above in order of number of heavy atoms, rising:
SMILES	RecA splice inh	Mtb H37Rv	YopH PTP inh	Arbovirus anti	Mtb betalactam	others
COc1cccc(C(=O)n2c(SC)nc3cc4c(cc32)OCCO4)c1	.	-4%	-30	-7	10
Cc1cc(=O)oc2cc(OCC(=O)NCCCN3CCCC3=O)c(Cl)cc12	-2.3	.	.	.	-7
CCn1nc(C(C)C)cc1C(=O)N1CCCC(CO)(Cc2ccc(F)cc2F)C1 (stereo unspecified)	-4.9	.	.	.	1
COc1cc(C(=O)OCC(=O)Nc2c(F)c(F)c(F)c(F)c2F)cc(OC)c1OC	1.7	1%	-41	-3	-9

Only part of the results is shown; rates above refer to the full screens.
